LASV entry inh: inhibitors of Lassa virus binding or cell entry. Lassa virus pseudotype entry inhibition, cell reporter; control for the full effect not named in the record. Potency, µM (highest dose often 37.9 µM), without a hit: at the highest dose activity change, negative = inhibition, usual class: inhibitors. hit rate 1.2% among 300,000; active means well fitted inhibition curve with a large enough effect; inconclusive means small, poorly fitted or top-dose-only effect, or effect the other way; inactive means flat fitted curve, though single readings scatter; tested in HEK293 cells; further: on the % scale 0 is the no-effect control and ±100 the full control effect; nearly all actives have a fitted effect of over 50% in size; luciferase read-out
2A StopGo: FMDV 2A StopGo reporter, luciferase signal; human cells with a luciferase reporter of 2A StopGo recoding; control for the full effect not named in the record; hit rate 1.2% among 410,000; Potency, µM (titrated, usually from 57.9 µM), for the others: at the top dose signal change, negative = less light; AID 1159524; active = well fitted falling curve with a large enough effect; inconclusive = small, poorly fitted or top-dose-only effect; inactive = no such curve, though single readings can be large or run the other way; tested in HEK293T cells; further: on the % scale 0 is the no-effect control and ±100 the full control effect; nearly all actives have a fitted effect of over 45% in size; luciferase light after 4 h
Cruzain inh Det: cruzain (T. cruzi) inhibition with detergent; purified cruzain, Z-FR-AMC fluorescence, 0.01% Triton; Potency, µM, for the others: max response, negative = inhibition, most hits filed as inhibitors; hit rate 0.43% among 200,000; AID 1478; active means well fitted curve in the direction sought with a large enough effect; inconclusive means small, poorly fitted or top-dose-only effect, or another doubt; inactive means no such curve, though single readings can be large; an effect the other way counts as inactive or inconclusive;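 further: plate controls were neutral wells for no effect and buffer without enzyme for full effect; nearly all actives have a fitted effect of over 40% in size; top concentration of the series not given in the record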
Target sequence (P25779 123-467 limits assumed): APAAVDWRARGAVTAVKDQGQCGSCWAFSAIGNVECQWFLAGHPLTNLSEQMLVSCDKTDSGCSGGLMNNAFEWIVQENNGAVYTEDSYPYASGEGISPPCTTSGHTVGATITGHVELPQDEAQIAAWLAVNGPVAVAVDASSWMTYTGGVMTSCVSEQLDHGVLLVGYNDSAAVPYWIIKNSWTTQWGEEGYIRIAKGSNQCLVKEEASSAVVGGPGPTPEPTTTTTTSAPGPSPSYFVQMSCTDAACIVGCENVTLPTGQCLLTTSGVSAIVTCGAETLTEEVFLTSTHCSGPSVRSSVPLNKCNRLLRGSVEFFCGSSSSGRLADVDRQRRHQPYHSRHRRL
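Z-FR-AMC hydrolysis (2 uM substrate) by cruzain (1.5 nM) monitored kinetically at ex 360/em 450 nm after 15 min room-temperature compound exposure; 0.01% Triton X-100, pH 5.5, 5 mM DTT.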
SARS PLpro yeast: inhibitors of SARS-CoV papain-like protease in yeast | S. cerevisiae expressing SARS-CoV PLpro, growth rescue; control for the full effect not named in the record | Potency, µM (series often up to 32.9 µM), without a hit: at the highest dose activity, positive = growth rescue | hit rate 0.19% among 330,000 | AID 485353; further: 0% is about no effect; nearly all actives have a fitted effect of over 55% in size; growth read by luminescence after 48 h
MARV entry inh: blocks Marburg virus binding to or entry into cells; Marburg virus pseudotyped entry inhibition, cell reporter; control for the full effect not named in the record; about a third of the inactives were read at about 46 µM; Potency, µM (doses to about 37.8 µM), without a hit: at the top dose activity change, negative = inhibition, hits mostly inhibitors; hit rate 1.8% among 300,000; active = well fitted inhibition curve with a large enough effect; inconclusive = small, poorly fitted or top-dose-only effect, or effect the other way; inactive = flat fitted curve, though single readings scatter; tested in HEK293 cells; about a fifth of its hits are not listed in these tables; further: on the % scale 0 is the no-effect control and ±100 the full control effect; luciferase read-out
Cruzain inh noDet: cruzain (T. cruzi) inhibition without detergent. P25779. purified cruzain, Z-FR-AMC fluorescence, no detergent. Potency, µM, for inactives: max response, negative = inhibition, most hits filed as inhibitors. hit rate 2.3% among 200,000. AID 1476; active means well fitted curve in the direction sought with a large enough effect; inconclusive means small, poorly fitted or top-dose-only effect, or another doubt; inactive means no such curve, though single readings can be large; an effect the other way counts as inactive or inconclusive;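 further: plate controls were enzyme without inhibitor for no effect and buffer without enzyme for full effect; nearly all actives have a fitted effect of over 40% in size; top concentration of the series not given in the record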
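Purified cruzain at 1.5 nM, pre-incubated 15 min with compound at room temperature in 100 mM sodium acetate pH 5.5, 5 mM DTT, 0.00005% Triton X-100. Reaction started with 2 uM Z-FR-AMC; AMC fluorescence increase over 60 s gives rate.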
RE007 growth inh: less growth of the S. pombe RE007 Vpr strain. S. pombe RE007 Vpr strain, BacTiter-Glo ATP luminescence, 24 h; control for the full effect not named in the record. Potency, µM (titrated, usually from 92.2 µM), inactives show at the highest dose activity change, negative = less growth. hit rate 0.21% among 360,000; active = well fitted falling curve with a large enough effect; inconclusive = small, poorly fitted or top-dose-only effect; inactive = no such curve, though single readings can be large or run the other way;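 further: on the % scale 0 is the no-effect control and ±100 the full control effect; nearly all actives have a fitted effect of over 50% in size; the assay follows cell death caused by Vpr and the record does not say whether a fall means rescue or toxicity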
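Fission yeast strain RE007, carrying one chromosomally integrated HIV-1 vpr copy, was seeded at OD 0.01 in PMG+AL medium with 23 nL pinned compound. After 24 h at 30 °C and 99% humidity, viability was read by BacTiter-Glo luminescence.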
NS1 inh: inhibitors of influenza NS1 protein function; AID 2326; Potency, µM (top dose mostly 46.1 µM), for the others: top-dose activity, positive = more growth; hit rate 0.4% among 270,000; S. cerevisiae slowed by influenza A NS1, growth recovery by OD600; further: actives are rising curves; nearly all actives have a fitted effect of over 50% in size
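Growth recovery, yeast-based: influenza A NS1 expressed in S. cerevisiae causes slow growth, and suppressors are detected by OD600. The parent strain without NS1 is used as positive control.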
The depositor's hits bear a star; ? = inconclusive; . = not tested or not shown; [ ] = another dose, or the depositor's remark. Unless noted, the call rests on the fitted dose curve; in most records, active means well fitted rising curve with a large enough effect; inconclusive means small, poorly fitted or top-dose-only effect; inactive means no such curve, though single readings can be large or run the other way. Potency means the concentration at half of the fitted maximal effect. Not a hit list; overall some 4.6% were active at least once.

1) COc1ccc(CC(=O)Nc2ccc(N3CCOCC3)cc2)cc1OC
2) CCn1cc(CN2CCCC(CNS(=O)(=O)Cc3ccccc3)C2)cn1 (stereo not given)
3) COc1ccccc1N(CC(=O)Nc1ccccc1C(=O)N1CCCC1)S(C)(=O)=O
4) CC(C(=O)Nc1nc2ccccc2[nH]1)N1C(=O)C2CC=CCC2C1=O (stereo not given)
5) COc1ccc(C=C2C(=O)N(C)C(=O)N(C)C2=O)cc1COc1ccc(NC(C)=O)cc1
6) Cc1cc(CNC(=O)c2ccc3c(c2)OCO3)c2ccccc2n1
7) CCOC(=O)c1[nH]c(C)c(C(=O)N2CCN(c3cccc(Cl)c3)CC2)c1C
8) CCCCN(C(=O)c1ccc(S(=O)(=O)N2CCOCC2)cc1)C1CCS(=O)(=O)C1 (stereo not given)

entry no.,1,2,3,4,5,6,7,8
LASV entry inh,.,.,2%,3%,12%,.,-5%,?
2A StopGo,-24%,-23%,7%,20%,-7%,-29%,-28%,-8%
Cruzain inh Det,.,.,.,-3.4%,.,.,-1.8%,.
SARS PLpro yeast,-1%,-2%,-2%,1%,0%,-2%,-1%,-4%
MARV entry inh,.,.,-13%[46.1 µM],23%[46.1 µM],-11%[46.1 µM],.,3%,21%
Cruzain inh noDet,.,.,.,-4%,.,.,?,.
RE007 growth inh,1%,20%,9%,15%,4%,4%,7%,5%
NS1 inh,1%,7%,16%,1%,-33%,1%,-35%,.

9) COc1cccc(OCCn2cc(C(=O)c3ccco3)c3ccccc32)c1
10) CCc1noc(C)c1C(=O)Nc1ccccc1N1CCOCC1
11) CCC(C)(C)NC(=O)CN(CC1CCCO1)C(=O)CNS(=O)(=O)c1ccccc1 (stereo not given)
12) CC(Sc1nc(N(C)C)nc(N2CCOCC2)n1)C(=O)Nc1ccccc1 (stereo not given)
13) CCCOC(=O)CSc1nnc(-c2cc(OC)c(OC)c(OC)c2)o1
14) O=C(NC1CCCCC1)C1Cc2ccccc2CN1S(=O)(=O)c1ccc(F)cc1 (stereo not given)
15) O=C(O)c1cc(OCc2ccccc2)cc(OCc2ccccc2)c1
16) COC(=O)c1ccccc1NC(=O)c1cnn2cccnc12

entry no.,9,10,11,12,13,14,15,16
LASV entry inh,?,8%,-9%,-18%,4%,-15%,14%[46.1 µM],-13%[46.1 µM]
2A StopGo,-2%,-22%,11%,-26%,-10%,.,-5%,-11%
Cruzain inh Det,-7.0%,.,.,-1.9%,-9.0%,-0.7%,.,.
SARS PLpro yeast,-13%,3%,3%,-5%,-7%,-5%,1%,-1%
MARV entry inh,?,0%,?,-29%,-6%,-13%,26%[46.1 µM],8%[46.1 µM]
Cruzain inh noDet,-14%,.,.,10%,-10%,-16%,.,.
RE007 growth inh,9%,1%,6%,-1%,-9%,6%,55%,13%
NS1 inh,-29%,.,4%,-16%,-21%,-8%,-4%,-4%

17) CCOC(=O)/C=C1\SCC(=O)N1CC(=O)NC12CC3CC(CC(C3)C1)C2
18) CCOC(=O)c1cc(-c2ccco2)nn1-c1ccc(C)cc1
19) O=C(CNC(=O)OCc1ccccc1)NC1CCCCCCC1
20) Cc1ccc(NC(=O)CN(C)C(=O)CSc2ncc(C(F)(F)F)cc2Cl)cc1
21) Cc1ccc(NC(=O)Cc2ncc(C(F)(F)F)cc2Cl)cc1Cl
22) CCn1c(SCc2nc(N)nc(N3CCCCC3)n2)nc2c1c(=O)n(C)c(=O)n2C
23) COc1ccc(C(CNC(=O)c2cc3ccccc3o2)N2CCCCC2)cc1 (stereo not given)
24) CCOc1ccc(N2CC(C(=O)Nc3ccc4c(c3)OCCO4)CC2=O)cc1 (stereo not given)

entry no.,17,18,19,20,21,22,23,24
LASV entry inh,?,-2%,-6%,-3%,6%,?,?,15%
2A StopGo,-19%,4%,16%,-5%,-10%,?,-17%,?
Cruzain inh Det,3.1%,.,2.4%,-7.1%,-4.7%,-0.4%,.,.
SARS PLpro yeast,-13%,-6%,-3%,9%,-5%,14%,2%,-1%
MARV entry inh,-10%,9%[46.1 µM],13%,-19%,-4%[46.1 µM],10%,-25%[46.1 µM],-23%[46.1 µM]
Cruzain inh noDet,12%,.,5%,25%,-22%,8%,.,.
RE007 growth inh,12%,9%,3%,22%,-14%,34%,-9%,3%
NS1 inh,-12%,-14%,-19%,7%,4%,2%,0%,-4%

25) Cc1cnc(NC(=O)CCNC(=O)c2ccc([N+](=O)[O-])cc2)s1
26) CNC[C@@H](C)NC[C@@H](Cc1ccccc1)NCCc1ccccc1
27) COc1cc(NC(=O)COc2ccccc2)c(OC)cc1NC(C)=O
28) CN(C)c1ccc(/C=N/Nc2cccc(C(=O)O)c2)cc1
29) COC(=O)C1=C(C)N(Cc2ccco2)C(=O)N[C@@H]1c1ccccc1
30) COC(=O)c1ccc(OCC2c3cc(OC)c(OC)cc3CCN2C(=O)c2ccco2)cc1 (stereo not given)
31) Cc1ccc(Nc2nc3ccccc3nc2-n2nc(C)cc2C)c(Cl)c1
32) CN1CCCN(C(=O)CC2(CC(=O)O)CCCC2)CC1

entry no.,25,26,27,28,29,30,31,32
LASV entry inh,.,.,17%,.,8%,4.1µM*,15%[46.1 µM],-19%[46.1 µM]
2A StopGo,-2%,-11%,2%,4µM*,-22%,?,-8%,3%
Cruzain inh Det,.,.,.,.,0.2%,-6.3%,0.3%,.
SARS PLpro yeast,0%,-1%,2%,2%,-4%,-19%,.,-2%
MARV entry inh,.,.,?,.,-8%,?,2%[46.1 µM],7%[46.1 µM]
Cruzain inh noDet,.,.,.,.,7%,?,2%,.
RE007 growth inh,-13%,2%,-6%,20%,6%,2%,.,-9%
NS1 inh,1%,5%,2%,-6%,-15%,-74%,.,.

33) Cc1ccc(CNC(=O)COc2ccccc2-c2ccccc2)cc1
34) Cc1ccc(C(=O)N2CCCC(CCC(=O)N3CCN(c4ccccn4)CC3)C2)s1 (stereo not given)
35) CN(C)c1ccc(C(=S)N2CCN(C(=S)Nc3cccc4ccccc34)CC2)cc1
36) COc1ccc(C(=O)CNc2ccccc2C#N)cc1
37) COc1ccc(CC(=O)NNC(=S)Nc2ccc(Br)cc2)cc1
38) COc1cc(C(=O)NCc2nnc(SCC(=O)NCc3ccccc3)o2)cc(OC)c1OC
39) CSc1nnc(-c2ccc(NC(N)=S)cc2)o1
40) Cc1ccc(S(=O)(=O)N(C)c2ccc(C(=O)N3CCOCC3)cc2)cc1

entry no.,33,34,35,36,37,38,39,40
LASV entry inh,-9%,-30%[46.1 µM],-24%,-21%,17%,16%,.,?
2A StopGo,-1%,?,-21%,51%[activator],-22%,-2%,0%,1%
Cruzain inh Det,-8.6%,.,.,.,1.3%,6.4%,.,.
SARS PLpro yeast,-11%,-1%,0%,-5%,12%,-1%,0%,1%
MARV entry inh,5%,?,-15%,-29%[46.1 µM],1%,-9%,.,3%[46.1 µM]
Cruzain inh noDet,-9%,.,.,.,6%,-5%,.,.
RE007 growth inh,16%,-5%,1%,-23%,-16%[3.69 µM],2%,11%,0%
NS1 inh,-17%,-7%,.,.,11%,-1%,4%,-10%

41) O=C(Cn1ncc2c3ccccc3n(Cc3cccc(Cl)c3)c2c1=O)NC1CCCCCC1
42) Cc1nn(S(=O)(=O)c2ccc(F)cc2)c(C)c1S(=O)(=O)N1CCC(C)CC1
43) O=C(CN(c1ccccc1)S(=O)(=O)c1ccccc1)N/N=C/c1ccc(OC2CSC2)cc1
44) Nc1ccc(N=Nc2ccccc2)cc1[N+](=O)[O-]
45) CCOC(=O)c1cc([N+](=O)[O-])cc([N+](=O)[O-])c1Sc1ncnc2nc[nH]c12
46) O=C(O)C1C2C=CC(C2)C1C(=O)NCc1ccc(Cl)cc1Cl (stereo not given)
47) Cc1ccc(NC(=O)C2COc3ccccc3O2)nc1 (stereo not given)
48) O=C(Cc1ccc(Cl)cc1)Nc1ccc(S(=O)(=O)Nc2cnc3ccccc3n2)cc1

entry no.,41,42,43,44,45,46,47,48
LASV entry inh,6%[46.1 µM],-4%[46.1 µM],.,0%[46.1 µM],1.4µM*,10%,?,5%[46.1 µM]
2A StopGo,-2%,-26%,.,28%,22µM*,-13%,-4%,27%
Cruzain inh Det,-7.6%,0.6%,-1.7%,.,.,.,-2.8%,.
SARS PLpro yeast,.,.,-4%,.,.,0%,5%,0%
MARV entry inh,-9%[46.1 µM],.,.,?,?,2%,20%[46.1 µM],-26%
Cruzain inh noDet,?,3%,?,.,.,.,-3%,.
RE007 growth inh,.,.,.,-5%,12%,-15%,-8%,-12%
NS1 inh,.,.,14%,.,.,4%,-14%,6%

49) CCOC(=O)Cn1c(=O)n(-c2ccccc2OC)c2nc(-c3ccccc3C)nc(C(N)=O)c21
50) CN(C)CCCNC(=O)C(=O)Nc1cc2c3c(c1)CC(=O)N3CCC2
51) COC(=O)N/N=C/c1cn(CCOc2ccccc2OC)c2ccccc12
52) CC(OCc1ccccc1)C(NC(=O)OC(C)(C)C)C(=O)NCC1CCCO1 (stereo not given)

entry no.,49,50,51,52
LASV entry inh,-14%[46.1 µM],.,.,7%
2A StopGo,-23%,-11%,-21%,50%[activator]
Cruzain inh Det,-4.9%,.,.,-0.9%
SARS PLpro yeast,.,-5%,-1%,6%
MARV entry inh,.,.,.,12%
Cruzain inh noDet,?,.,.,8%
RE007 growth inh,.,-5%,4%,6%
NS1 inh,.,-6%,5%,-3%

Full records as entered above. Screens in order: LASV entry inh, 2A StopGo, Cruzain inh Det, SARS PLpro yeast, MARV entry inh, Cruzain inh noDet, RE007 growth inh, NS1 inh
COc1cccc(OCCn2cc(C(=O)c3ccco3)c3ccccc32)c1 is entered as ?, -2%, -7.0%, -13%, ?, -14%, 9%, -29%
COC(=O)c1ccccc1NC(=O)c1cnn2cccnc12 is entered as -13%[46.1 µM], -11%, ., -1%, 8%[46.1 µM], ., 13%, -4%
CCCOC(=O)CSc1nnc(-c2cc(OC)c(OC)c(OC)c2)o1 is entered as 4%, -10%, -9.0%, -7%, -6%, -10%, -9%, -21%
